# Bioassay records: PubChem BioAssay, National Center for Advancing Translational Sciences (NCATS)
# miR-21 reporter – qHTS Assay for Modulators of miRNAs and/orActivators of miR-21; HeLa miR-21 FLuc reporter, luciferase, 48 h; 340,000 tested, under 10 active; Potency, µM (doses to about 38.3 µM), for the others: top-dose reporter change, positive = more light; AID 2288, 2010; active = well fitted rising curve with a large enough effect; inconclusive = small, poorly fitted or top-dose-only effect; inactive = no such curve, though single readings can be large or run the other way;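 note: % of control where 0% means no effect; miR-21 action dims this reporter so a rising signal means less miR-21 action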
#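 HeLa miR-21-FLuc reporter line, endogenous miR-21; 2000 cells/well in DMEM/10% FBS; compound titration up to ~40uM final, 48 h, 37 degree Celsius; luciferase detection reagent, 15 min lysis, CCD luminescence.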
# GLA inh pH 4.5 – qHTS Assay for Inhibitors of Human alpha-Galactosidase at pH 4.5 | Alpha-galactosidase A (Homo sapiens), P06280 | purified enzyme, 4-MU-alpha-Gal fluorescence, pH 4.5 | activity change, negative = inhibition, % at 105 µM | 230,000 tested, under 10 active | AID 1467, 2008; inconclusive = small, poorly fitted or top-dose-only inhibition, or a rising curve; inactive = flat fitted curve, though single readings scatter; no compound was filed as active;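 note: 0% = full activity with enzyme and -100% = basal without enzyme; dose as in the result columns while the protocol names 77 µM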
# Rango release inh – qHTS Assay for Inhibitors of RanGTP induced Rango (Ran-regulated importin-beta cargo) - Importin beta complex dissociation; Potency, µM (doses to about 46.1 µM), without a hit: top-dose activity change, negative = inhibition; AID 540253, 2011; actives 0.071% (n = 340,000); Biochemical FRET Rango-importin beta, RanGTP-induced dissociation; active means falling FRET ratio curve, often poorly fitted, with flat reads before Ran was added; inconclusive means other falling curves, or compound fluorescence or quenching; inactive means flat or rising ratio curve;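 note: potency is the fitted concentration of half-maximal effect; % of control where 0% means no effect; nearly all actives have a fitted effect of over 45% in size; -100% = wells without RanGTP and RCC1; the record marks most hits as doubtful in a second field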
#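 Two FRET readings bracket the reaction: one 5 min after compound meets Rango–importin beta, another 45 min after RanGTP-RCC1 (0.6 uM Ran, 0.2 uM RCC1, 2 mM GTP) is added. Only the second defines inhibition.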
# Rango-impB inh – qHTS Assay for Inhibitors of Rango (Ran-regulated importin-beta cargo) - Importin beta complex formation | AID 540263, 2011 | Rango CFP/YFP FRET sensor + importin beta, 45 min | actives 0.031% (n = 340,000) | Potency, µM (highest dose often 92.2 µM), for the others: top-dose inhibition of complex formation; active = rising FRET ratio curve, often small or poorly fitted; inconclusive = mostly compound fluorescence or quenching in the first reads; inactive = flat curves in all reads;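 note: potency is the fitted concentration of half-maximal effect; 0% = DMSO wells and 100% = buffer wells lacking importin beta; nearly all actives have a fitted effect of over 15% in size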
# Target sequence (Q14974 whole entry, looked up): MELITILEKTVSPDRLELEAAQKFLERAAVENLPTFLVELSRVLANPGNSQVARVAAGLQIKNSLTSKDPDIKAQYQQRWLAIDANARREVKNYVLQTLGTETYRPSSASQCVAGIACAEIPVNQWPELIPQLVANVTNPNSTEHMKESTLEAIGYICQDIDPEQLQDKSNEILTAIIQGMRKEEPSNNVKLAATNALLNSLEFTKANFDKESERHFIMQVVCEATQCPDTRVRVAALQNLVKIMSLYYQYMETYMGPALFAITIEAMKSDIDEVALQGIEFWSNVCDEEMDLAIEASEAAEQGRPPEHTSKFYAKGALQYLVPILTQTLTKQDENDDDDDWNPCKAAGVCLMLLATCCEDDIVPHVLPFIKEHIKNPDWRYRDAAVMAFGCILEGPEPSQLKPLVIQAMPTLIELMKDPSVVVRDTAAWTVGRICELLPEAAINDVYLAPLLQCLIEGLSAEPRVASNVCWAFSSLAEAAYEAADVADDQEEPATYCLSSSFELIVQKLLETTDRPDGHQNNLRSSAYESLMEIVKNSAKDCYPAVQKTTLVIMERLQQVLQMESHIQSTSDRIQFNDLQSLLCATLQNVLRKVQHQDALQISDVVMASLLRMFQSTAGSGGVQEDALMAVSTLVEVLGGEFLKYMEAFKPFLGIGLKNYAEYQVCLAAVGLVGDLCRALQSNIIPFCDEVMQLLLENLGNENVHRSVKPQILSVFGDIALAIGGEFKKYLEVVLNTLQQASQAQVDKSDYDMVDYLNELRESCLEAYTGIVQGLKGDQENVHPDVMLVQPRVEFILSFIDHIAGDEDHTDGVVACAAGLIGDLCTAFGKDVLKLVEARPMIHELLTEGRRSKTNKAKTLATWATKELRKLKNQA
#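 Inhibition scored from the CFP 486 nm/YFP 530 nm FRET ratio 45 min after adding 0.125 microM importin beta to 50 nM Rango biosensor preincubated 5 min with compound (room temperature, PBS with DTT, Tween-20, BSA). No-importin wells as positive control.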
# * marks the source's active call; other numbers are inactive results; ? = inconclusive; / = no result given; & = joins results of further samples; [ ] = remark or other dose.
# Values run as follows: miR-21 reporter | GLA inh pH 4.5 | Rango release inh | Rango-impB inh
Cc1cc(C)c2c(N)c(C(=O)c3ccccc3)sc2n1
    1% | -12 | ? | ?
O=S(=O)(Nc1ncccn1)c1ccc(NC(=S)Nc2ccccc2Cl)cc1
    -4% | 0 | -6% | -4.8%
Cc1cc2n(n1)SC(Nc1ccccc1)N2 (stereo not given)
    -34% | 7 | 6% | 0.1%
N#CC1=C(N)SC(N)=C(C#N)C1CCc1ccccc1
    11% | -4 | ? | ?
O=C(O)C1=NOC(CNC(=O)c2ccccc2Cl)C1 (stereo not given)
    4% | -6 | -10% | 4.6%
Cc1[nH]c2ccccc2c1C(=O)C(=O)N1CCN(c2ccccc2)CC1
    -1% | / | -7% | -0.8%
CNC(=S)N(CCc1c(C)[nH]c2ccc(Cl)cc12)Cc1cc(OC)c(OC)c(OC)c1
    21% | 14 | -2% | -1.7%
COC(=O)C1=C(C)N(Cc2ccccc2)C(=NCCCCO)N[C@H]1CCc1ccccc1
    13% | / | -14% | ?
CC1CCCC(N2CCN(C(=O)c3ccccc3F)CC2)C1 (stereo not given)
    -7% | / | 17% | 0.2%
CCOC(=O)C1(CCc2ccccc2)CCN(C(=O)c2cccc(C)n2)CC1
    -15% | 3 | -7% | 2.8%
COc1ccc(S(=O)(=O)N2c3cc(C)ccc3OCC2C(C)(C)C)cc1 (stereo not given)
    0% | -3 | 3% | 0.2%
Cc1cc2cc(CCNC(=O)c3ccc(C)c([N+](=O)[O-])c3)c(=O)[nH]c2cc1C
    0% | -14 | -1% | -1.9%
c1ccc2c(c1)Cn1c-2nc2ccccc21
    -26% | 7 | 11% | -0.7%
CC(C)Oc1ccc(CNC(=O)CCC(=O)N2CC(C)Sc3ccccc32)cc1 (stereo not given)
    2% | / | -7% | 2.4%
Cc1ccc(C(=O)OCC(=O)N2CC(C)CC(C)C2)cc1S(=O)(=O)N1CCCCC1 (stereo not given)
    / | / | 0% | 3.5%
CN(Cc1cnccn1)Cc1nc(Cc2ccccc2Cl)no1
    -4% | -2 | 0% | 0.2%
COc1ccc(OCc2cc(C(=O)O)c(C)o2)cc1
    -30% | -17 | / | /
C=C(C)Cn1c(SCC(=O)O)nc2c1c(=O)[nH]c(=O)n2C
    -2% | 5 | ? | -0.9%
Brc1ccccc1-n1nnc(-c2ccnc3ccccc23)n1
    -18% | -2 | 5% | ?
COc1cc(CNCCNC(=O)c2cccs2)cc(OC)c1OC
    0% | 5 | 34% | -1.2%
CCCc1[nH]nc2c1C(c1cccc(OC)c1)C(C#N)=C(N)O2 (stereo not given)
    2% | 3 | 6% | -3.3%
COc1cccc(/C=C/C(=O)OCC(=O)N2CCN(c3ccccc3)CC2)c1
    / | / | 3% | 0.6%
C[C@H](CO)N1C[C@H](C)[C@@H](CN(C)Cc2ccc(Cl)c(Cl)c2)Oc2ccc(NC(=O)Cn3cnnn3)cc2C1=O
    / | / | 41% | -3.7%
O=C(CSc1nc(-c2ccccc2)c(-c2ccccc2)o1)Nc1nncs1
    -1% | -11 | -1% | -0.1%
CCCn1nnnc1NCc1ccc(C(C)C)cc1
    -5% | / | 0% | 0.3%
Cc1cc(C)cc(OCc2ccc(C(=O)NC3CCOC3=O)o2)c1 (stereo not given)
    2% | -2 | -2% | -0.5%
CCCCCOC(=O)C1=C(C)Nc2nnnn2C1c1ccc(OC)c(OC)c1OC (stereo not given)
    -3% | -13 | -10% | 1.5%
Cn1c(COc2ccccc2)nnc1SCC(=O)c1cccc([N+](=O)[O-])c1
    -4% | 0 | 4% | -2.3%
CC(C)c1ccc(CN2CCSCC2)cc1
    9% | / | -6% | -2.0%
Cc1ccc(-n2c([S-])c(C(=O)Nc3ccc(OC(F)F)cc3)[n+]3ccc(C(=O)NCCO)cc23)cc1C
    -3% | -1 | -29% | ?
CC(C)n1nnnc1SCC(=O)Nc1ccc2c(c1)OCO2
    -53% | 5 | 17% | -2.6%
O=c1[nH]c(S)c(/C=C2\C=Nc3ccccc32)s1
    -2% | -5 | 13% | 1.0%
CC(=O)N1CCC(N2CCN(Cc3ccc(C)cc3)C(CCO)C2)CC1 (stereo not given)
    0% | 9 | 28% | -3.0%
Cc1cccc(NC(=O)CN2C(=O)N/C(=C/c3ccc(C)s3)C2=O)c1
    -10% | -2 | 0% | -1.9%
C=CCNC(=O)C1CC(=O)N(c2ccc(Br)cc2)C1 (stereo not given)
    -6% | 1 | 1% | 2.9%
CC(=O)C(Sc1ccc2nnc(-c3cccnc3)n2n1)C(C)=O
    0% | 6 | 4% | 2.2%
COc1ccccc1N(CC(=O)NC1CCCCC1)S(=O)(=O)c1cccs1
    -5% | 5 | 24% | 0.6%
O=C(c1ccc(S(=O)(=O)N2CCOCC2)cc1)N1CCCc2ccccc21
    -10% | 11 | 1% | -1.1%
O=C(COC(=O)c1ccc(S(=O)(=O)N2CCCC2)cc1)NCc1ccco1
    -1% | 0 | -9% | 0.0%
COC(=O)CCNC(=O)c1ccc2nc(Cc3ccc(OC)c(OC)c3)oc2c1
    -34% | / | 0% | 0.3%
Cc1nc2cc(C(=O)NCc3cccnc3)ccc2n1-c1ccc(F)cc1F
    -2% | -9[21.1 µM] | -3% | -0.2%
COc1ccc(S(=O)(=O)N2CCCC(C(=O)N3CCOCC3)C2)cc1OC (stereo not given)
    0% | / | 18% | 3.1%
CCN(CC)C(=O)Cn1c(=O)n(CCCCCC(=O)Nc2ccccc2)c(=O)c2sccc21
    -3%&-9% | 2 | 7% | 7.1%
COc1ccccc1C(c1nnnn1CC1CCCO1)N1CCN(c2ccccc2)CC1 (stereo not given)
    4% | -7 | 15% | -2.2%
COC(=O)c1ccc(C2/C(=C(/O)c3ccc4c(c3)CC(C)O4)C(=O)C(=O)N2CCN2CCOCC2)cc1 (stereo not given)
    -2% | / | 1% | 0.8%
Cc1ccnc(NC(=O)CCC2COc3ccccc3O2)c1 (stereo not given)
    -16% | 2 | -5% | -4.7%
COc1cc(NS(=O)(=O)c2ccc(NS(=O)(=O)c3ccc(NC(C)=O)cc3)cc2)nc(OC)n1
    0% | / | -1% | -0.7%
COc1ccc(/C(CC2(O)C(=O)Nc3ccccc32)=N\O)cc1 (stereo not given)
    -1% | -4 | 5% | 0.8%
CN(C)c1nc(NCc2ccccc2)nc(N/N=C/c2cccc(Br)c2)n1
    8% | -29 | -11% | 5.1%
CC12CN3CC(C)(CN(C1)C3c1ccc(Cl)cc1)C2 (stereo not given)
    1% | 3 | 11% | 5.5%
COc1ccccc1NC(=O)CSc1nc(N)c(-c2ccccc2)c(=O)[nH]1
    -14% | -7 | 11% | 2.5%
O=C(O)c1ccccc1Nc1ccccc1
    / | -13&3 | 15% | -0.4%
CC1(C)OC(=O)N(c2ccccc2)C12C=Cc1cc(Br)ccc1O2 (stereo not given)
    1% | -4 | -4% | -0.5%
Cc1cc2nncn2c2ccccc12
    -11% | 6 | -8% | 5.9%
CCCn1c(SCC(=O)c2ccc3c(c2)OCCO3)nc2c1c(=O)n(C)c(=O)n2C
    7% | 0 | 1% | -1.9%
O=C(CSc1nnc2ccccn12)NNC(=O)c1ccc(Cl)cc1
    -3% | 7 | -4% | 3.1%
Cc1ccc(NC(=O)CC(NCC2CCCO2)C(=O)O)cc1C (stereo not given)
    -2% | 2 | -1% | 0.7%
COc1cc(CNC(C)c2ccccc2)cc(Br)c1OCc1ccc(F)cc1 (stereo not given)
    25% | / | 2% | ?
N#Cc1ccc(C(=O)N2CCC3CC2c2cc(-c4ccc(F)cc4)ccc23)cc1 (stereo not given)
    / | / | -1% | -1.2%
COc1ccccc1C(=O)NCCC(=O)N1CCN(C(=O)c2ccco2)CC1
    / | / | -19% | -3.8%

# Reformatted: entries from further up.
miR-21 reporter,GLA inh pH 4.5,Rango release inh,Rango-impB inh,structure
1%,-12,?,?,Cc1cc(C)c2c(N)c(C(=O)c3ccccc3)sc2n1
-4%,0,-6%,-4.8%,O=S(=O)(Nc1ncccn1)c1ccc(NC(=S)Nc2ccccc2Cl)cc1
-34%,7,6%,0.1%,Cc1cc2n(n1)SC(Nc1ccccc1)N2 (stereo not given)
11%,-4,?,?,N#CC1=C(N)SC(N)=C(C#N)C1CCc1ccccc1
4%,-6,-10%,4.6%,O=C(O)C1=NOC(CNC(=O)c2ccccc2Cl)C1 (stereo not given)
-1%,/,-7%,-0.8%,Cc1[nH]c2ccccc2c1C(=O)C(=O)N1CCN(c2ccccc2)CC1
21%,14,-2%,-1.7%,CNC(=S)N(CCc1c(C)[nH]c2ccc(Cl)cc12)Cc1cc(OC)c(OC)c(OC)c1
13%,/,-14%,?,COC(=O)C1=C(C)N(Cc2ccccc2)C(=NCCCCO)N[C@H]1CCc1ccccc1
-7%,/,17%,0.2%,CC1CCCC(N2CCN(C(=O)c3ccccc3F)CC2)C1 (stereo not given)
-15%,3,-7%,2.8%,CCOC(=O)C1(CCc2ccccc2)CCN(C(=O)c2cccc(C)n2)CC1
0%,-3,3%,0.2%,COc1ccc(S(=O)(=O)N2c3cc(C)ccc3OCC2C(C)(C)C)cc1 (stereo not given)
0%,-14,-1%,-1.9%,Cc1cc2cc(CCNC(=O)c3ccc(C)c([N+](=O)[O-])c3)c(=O)[nH]c2cc1C
-26%,7,11%,-0.7%,c1ccc2c(c1)Cn1c-2nc2ccccc21
2%,/,-7%,2.4%,CC(C)Oc1ccc(CNC(=O)CCC(=O)N2CC(C)Sc3ccccc32)cc1 (stereo not given)

# Continuation:
# Values run as follows: miR-21 reporter | GLA inh pH 4.5 | Rango release inh | Rango-impB inh
CN(C)/C=N/c1ncc(C(=O)OC(C)(C)C)s1
    -31% | 16 | 9% | -4.2%
CCOC(=O)N1CCN(c2nc(-c3ccco3)cc(C(F)(F)F)n2)CC1
    -1% | 2 | 11% | 0.4%
O=C1NC[C@@H](Cc2cccc3ccccc23)N(CCCCC2CCCCC2)C1=O
    / | / | 2% | -1.3%
CN(C)S(=O)(=O)c1ccc(C(=O)Nc2ccccc2OC(F)(F)C(F)F)cc1
    0% | 2 | -14% | 0.6%
CC(C)(C)NC(=O)CSc1nnc(-c2ccccc2)c(-c2ccccc2)n1
    11% | / | 6% | 0.7%
Cc1cccc2c3c([nH]c12)CCN(C)C3
    -1% | / | -1% | -3.0%
CCC(C)NC(=O)Cn1cccc1C(=O)c1ccccc1 (stereo not given)
    2% | 6 | 8% | 0.8%
COc1ccc(NC(=O)CN(C)C(C)C(=O)NC(=O)NC2CCCCC2)cc1 (stereo not given)
    0% | / | -6% | 0.2%
O=C(Nc1nnc(-c2ccc3c(c2)CCCC3)o1)C1COc2ccccc2O1 (stereo not given)
    -37% | 1 | 7% | 4.3%
COc1ccc(Cc2nc3ccc(C(=O)N4CCOCC4)cc3o2)cc1
    -54% | / | 12% | 0.2%
CCCCNC(=S)N/N=C/C1=CCC2CC1C2(C)C (stereo not given)
    -2% | -4 | 20% | -4.8%
COC(=O)Cc1[nH]n(-c2nc3ccccc3s2)c(=O)c1C(C)=Nc1ccc(Cl)cc1
    -24% | 1 | -5% | 3.7%
N#Cc1ccccc1N=Cc1ccc(Br)cc1
    -2% | 10 | 2% | 2.6%
Nc1nnc(-c2ccc(Cl)cc2)o1
    -6% | 6 | -3% | 1.4%
CCc1ccccc1OCC(=O)OCC(=O)N1CC(=O)Nc2ccccc21
    0% | 4 | 3% | 0.8%
CCCCOc1c(Br)cc(CNCCCN2CCOCC2)cc1OC
    -5% | / | 11% | -0.4%
CCCCNCCOCCOc1ccc(C)cc1[N+](=O)[O-]
    -1% | 3 | -2% | -1.9%
CCN(CC(=O)Nc1c(F)cccc1F)C(=O)c1cnccn1
    / | / | -6% | 0.0%
COc1cc(N/N=C/c2ccc(N(C)C)cc2)ncn1
    -65% | 7 | 2% | 1.2%
O=C(NC1CCCCC1)c1ccc(Br)o1
    -12% | -7 | 1% | -2.4%

# These rows are one share of the data; the hit share may differ from the screen's.
